Source: PubChem BioAssay (several laboratories)
Arbovirus anti = antivirals against arbovirus infection, primary screen, cell-based, full library, 10K replicate subset; arbovirus infection cell-based antiviral screen; inhibition, % at 10 µM; hit rate 0.37% among 200,000; AID 1251, 2008;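 active means inhibition from about 30%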;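 further: bluetongue infection of BSR cells; cell survival read as ATP light after 72 h; 0% = infected wells without compound and 100% = uninfected wells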
Mtb betalactam = beta-lactam sensitization of Mtb H37Rv, H37Rv | M. tuberculosis H37Rv growth with meropenem, percent inhibition; hits of this screen are not shown here | inhibition, % at 25 µM | hit rate 0.27% among 330,000;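 active means about 74% or more and at least 40 points above the plate without the antibiotic, then above 30% in a dose series; inconclusive means first-round hits that could not be retested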;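 further: growth measured after seven days incubation then overnight dye step; 0% = bacteria only wells and 100% = bacteria with antibiotic; twin plates without the antibiotic show which effects depend on it; some results filed as inactive read as strong as hits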
YopH PTP inh = YopH tyrosine phosphatase inhibitors, primary screen, biochemical, fluorescence Ex485/Em525; YopH tyrosine phosphatase [Yersinia enterocolitica]; inhibition, %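 (about 10 µM by stock and volumes)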; hit rate 0.16% among 140,000;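 active means inhibition of 50% or more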;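 further: controls were vehicle for no effect and minimum signal wells for full effect; inactives centre near -20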
Mtb H37Rv = M. tuberculosis H37Rv growth inhibitors, H37Rv strain (AID 1626) | M. tuberculosis H37Rv growth inhibition; higher % means a stronger effect | one-dose inhibition, % at 10 µM; IC50 in µM for titrated hits | hit rate 0.95% among 220,000;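 active means confirmed in a dose series; inconclusive means inhibition above 80% but not taken into the dose series; inactive means below 80% or under 30% at every dose of the series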;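 further: bacteria incubated seven days before Alamar blue readout; 0% = bacteria only wells and 100% = bacteria with antibiotic wells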
RecA intein inh = Mtb RecA intein splicing inhibitors, primary screen, biochemical, fluorescence, HTS; Protein RecA (Mycobacterium tuberculosis (strain ATCC 25618 / H37Rv)), P9WHJ3; cell-free RecA intein splicing; inhibition, %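 (about 9 µM by stock and volumes)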; hit rate 0.75% among 290,000; AID 2221, 2009; in the data active means inhibition above about 30%; inconclusive means no clear call, values can overlap the other calls;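 further: 0% = vehicle wells and 100% = reference inhibitor control wells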
Target sequence (P9WHJ3 whole entry, looked up): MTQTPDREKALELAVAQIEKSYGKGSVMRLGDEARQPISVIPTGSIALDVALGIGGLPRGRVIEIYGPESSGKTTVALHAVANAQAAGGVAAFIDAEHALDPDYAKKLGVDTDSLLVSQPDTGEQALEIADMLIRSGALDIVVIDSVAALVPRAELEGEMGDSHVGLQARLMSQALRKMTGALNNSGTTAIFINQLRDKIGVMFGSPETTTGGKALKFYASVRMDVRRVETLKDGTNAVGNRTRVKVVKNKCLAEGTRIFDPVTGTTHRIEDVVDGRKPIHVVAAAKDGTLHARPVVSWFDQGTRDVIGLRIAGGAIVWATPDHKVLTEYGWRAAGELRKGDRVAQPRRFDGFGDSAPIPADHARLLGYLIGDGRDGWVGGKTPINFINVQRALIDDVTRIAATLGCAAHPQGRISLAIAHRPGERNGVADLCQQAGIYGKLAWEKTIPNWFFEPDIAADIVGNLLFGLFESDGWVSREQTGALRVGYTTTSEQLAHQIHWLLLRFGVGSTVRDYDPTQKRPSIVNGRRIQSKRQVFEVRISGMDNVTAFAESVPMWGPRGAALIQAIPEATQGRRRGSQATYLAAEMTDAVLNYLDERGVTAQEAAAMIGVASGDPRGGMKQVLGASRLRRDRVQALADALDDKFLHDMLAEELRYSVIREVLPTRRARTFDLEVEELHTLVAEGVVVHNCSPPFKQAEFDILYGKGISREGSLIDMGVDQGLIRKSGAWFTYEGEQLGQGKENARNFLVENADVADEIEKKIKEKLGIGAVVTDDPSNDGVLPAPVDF
Arbovirus anti repeat = recorded beside Arbovirus anti, whose call it bears; inhibition, %; measured here: 10K subset replicate screen; many hits read low in the repeat;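 first of two repeat runs on a subset; 0% = infected and 100% = uninfected wells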
The depositor's hits bear a star; ? = inconclusive; . = no result given. Not all compounds are listed; rates above refer to the full screens.

SMILES	Arbovirus anti	Mtb betalactam	YopH PTP inh	Mtb H37Rv	RecA intein inh	others
CCC(C)Sc1ccc([C@H]2N[C@@](CC(C)C)(C(=O)OC)[C@H]3C(=O)N(CC)C(=O)[C@@H]23)cc1 (stereo partly drawn)	.	-9	.	.	2.9
COc1ccc(OCC(=O)Nc2cccc(-c3nc4ccccc4o3)c2)cc1	0	1	-35	2%	0.3
CC(=O)OC(C)[C@H]1CC[C@H]2[C@@H]3CC[C@H]4C[C@@H](OC(C)=O)CC[C@]4(C)C3=CC[C@]12C (stereo partly drawn)	.	-6	.	.	0.8
CN(C)c1cccc(C(=O)Nc2ccc(N3CCOCC3)cc2)c1	-12	1	-23	2%	-2.2
NN/C(=C\[N+](=O)[O-])Nc1ccc(Cl)cc1	16	100	.	?	8.6
CCOC(=O)C1(Cc2ccccc2C)CCCN(C(=O)CN2CCCCC2=O)C1 (stereo not drawn)	.	-5	.	.	0.6
CCc1ccc(Nc2n[n+](-c3ccccc3)c(-c3ccc(OCc4ccccc4)cc3)s2)cc1	.	62	.	.	4.7
Cc1c(NC(=O)c2cc(=O)[nH]c(=O)[nH]2)c(=O)n(-c2ccccc2)n1C	2	-11	-35	-6%	0.4
CCOc1ccc(-c2nnc(Nc3ccc(OC)c(C(=O)N4CCCCC4)c3)c3ccccc23)cc1	-34	17	-7	26%	18
Cc1ccc(C)c(S(=O)(=O)Nc2ccc3[nH]c(=O)[nH]c3c2)c1	.	-5	.	.	0.7
Cc1cc(C(=O)COC(=O)CC2Sc3ccccc3NC2=O)c(C)n1-c1ccc2c(c1)OCO2 (stereo not drawn)	-5	6	-34	7%	7.9
COC(=O)COc1ccc(/C=C2/SC(=O)N(CC(=O)N3CCCC3)C2=O)cc1Br	-2	91	-29	7%	5.1
CC(C)(C)n1ncc2c(=O)n(Cc3c(F)cccc3Cl)cnc21	4	29	-44	1%	1.1
O=C(NCC(c1ccc(F)cc1)N1CCOCC1)c1cccc(Br)c1 (stereo not drawn)	8	-4	.	8%	-0.9
COc1ccc(CCNC(=O)CSc2nc(O)cc(=O)[nH]2)cc1OC	.	-4	.	3%	0.5
Cc1ccc(C(=O)C2CCN(C(=S)NCC3CCCO3)CC2)cc1 (stereo not drawn)	9	2	.	1%	13
C[C@H]1C[C@H]2[C@@H]3CCC4=CC(=O)C=C[C@]4(C)[C@@]3(F)[C@@H](O)C[C@]2(C)[C@@]1(O)C(=O)CO	.	-3	.	-15%	-1.4
Cc1cccc(-c2nnc(SCC(=O)N3c4ccccc4CCc4ccccc43)n2C)c1	-4	6	-25	2%	20
Cc1cc(=O)oc2c(C)c(OCC(=O)N3CCN(c4cccc(Cl)c4)CC3)ccc12	.	99	.	.	1.9
COc1ccc(NC(=O)CC2Oc3ccc(C)cc3NC2=O)cc1 (stereo not drawn)	-9	-1	-25	-2%	-2.0
Cc1ccc(CNC(=O)c2sc3ccc(S(=O)(=O)N4CCCCC4)cc3c2N)cc1	2	8	-36	0%	4.4
Cc1ccc(N2OC3C(=O)NC(=O)C3C2c2ccco2)cc1 (stereo not drawn)	-14	-4	5	-2%	0.7
Cc1ccc(C(=O)NC(C)c2ccccc2)cc1Br (stereo not drawn)	-5	6	-27	-3%	1.0
COc1cccc(NC(=O)c2cccc(OC)c2OC)c1	-1	-4	-24	-5%	0.4
O=C(Nc1nnc(N2CCCCCC2)s1)c1cc(-c2ccc(Br)cc2)on1	5	1	-10	11%	6.1	Arbovirus anti repeat=0
CCn1nc(NS(=O)(=O)c2ccccc2)c2cc3ccc(C)cc3nc21	.	-3	.	.	1.6
COC(=O)c1c(C)[nH]c(C(=O)CSc2nnnn2-c2ccccc2)c1C	14	-2	-15	.	0.6
Cc1ncccc1C(=O)N1CCCC(C(=O)c2ccc3c4c(cccc24)CC3)C1 (stereo not drawn)	-2	1	.	6%	1.4
Cc1ccc(Cn2c(C3CCCN3c3nc(-c4ccc(F)cc4)cs3)nc3cc(C(=O)NCCCO)ccc32)cc1 (stereo not drawn)	.	-12	.	-8%	3.0
COc1ccc(OC)c(C(=O)C2COC(=O)C2)c1 (stereo not drawn)	0	4	-40	3%	-1.9

Arranged by count of non-hydrogen atoms (low to high): some entries from above
SMILES	Arbovirus anti	Mtb betalactam	YopH PTP inh	Mtb H37Rv	RecA intein inh	others
Cc1ccc(C(=O)C2CCN(C(=S)NCC3CCCO3)CC2)cc1 (stereo not drawn)	9	2	.	1%	13
CCn1nc(NS(=O)(=O)c2ccccc2)c2cc3ccc(C)cc3nc21	.	-3	.	.	1.6
O=C(Nc1nnc(N2CCCCCC2)s1)c1cc(-c2ccc(Br)cc2)on1	5	1	-10	11%	6.1	Arbovirus anti repeat=0
Cc1cc(=O)oc2c(C)c(OCC(=O)N3CCN(c4cccc(Cl)c4)CC3)ccc12	.	99	.	.	1.9

4 successive compounds from above, for reference:
SMILES	Arbovirus anti	Mtb betalactam	YopH PTP inh	Mtb H37Rv	RecA intein inh	others
COC(=O)c1c(C)[nH]c(C(=O)CSc2nnnn2-c2ccccc2)c1C	14	-2	-15	.	0.6
Cc1ncccc1C(=O)N1CCCC(C(=O)c2ccc3c4c(cccc24)CC3)C1 (stereo not drawn)	-2	1	.	6%	1.4
Cc1ccc(Cn2c(C3CCCN3c3nc(-c4ccc(F)cc4)cs3)nc3cc(C(=O)NCCCO)ccc32)cc1 (stereo not drawn)	.	-12	.	-8%	3.0
COc1ccc(OC)c(C(=O)C2COC(=O)C2)c1 (stereo not drawn)	0	4	-40	3%	-1.9

(cont.)
SMILES	Arbovirus anti	Mtb betalactam	YopH PTP inh	Mtb H37Rv	RecA intein inh	others
Cc1ccc(-n2c(Cl)c(Cl)nc(Cl)c2=O)cc1	-38	100	-25	49%	.
O=C(Cc1coc2ccc3ccccc3c12)N1CCc2ccccc21	2	-2	-9	2%	0.9
COC(=O)[C@H](C)[C@@H]1C[C@@]1(C)[C@@H](NC(=O)OCc1ccccc1)c1ccccc1	8	-2	-39	1%	7.1
Cc1ccc2c(=O)cc(C(=O)NC3CCS(=O)(=O)C3)oc2c1C (stereo not drawn)	.	3	.	.	1.1
Fc1ccc2c(c1)Sc1ccc(Cl)cc1CC2N1CCN(CCC2OCCO2)CC1 (stereo not drawn)	.	97	.	.	15
Cc1cccc(OCCCCCNCCO)c1	6	4	-63	7%	6.6	Arbovirus anti repeat=2
CCCc1ncc(C(O)(c2ccccc2)c2ccc(C)cc2)n1C (stereo not drawn)	-7	-5	-16	1%	-3.0
O=C(Nc1ccc(C2CC2(Cl)Cl)cc1)c1ccccc1Br (stereo not drawn)	-26	92	-29	7%	14
COc1ccc(OC)c(CN2CCN(C(=O)c3cccc(S(=O)(=O)Nc4ccc(C)cc4)c3)CC2)c1	.	-6	.	.	-0.4
O=C(Cn1cnc2c(oc3ccccc32)c1=O)NCC1CCCO1 (stereo not drawn)	10	-9	-20	-8%	0.9
O=C(Cn1cc(C(F)(F)F)ccc1=O)N/N=C/c1ccc(Cl)c(Cl)c1	4	-1	-13	-1%	1.1
Cc1ccc2cc(CCNC(=O)c3ccc(S(=O)(=O)N4CCOCC4)cc3)c(=O)[nH]c2c1	.	-13	.	.	-0.3
COP(=O)(OC)C(NC(C)=O)C(Cl)(Cl)Cl (stereo not drawn)	-4	-3	.	3%	1.0
Cc1cc(-c2nnc3n2N=C(c2ccc(F)cc2)CS3)n[nH]1	.	25	.	-5%	-0.7
CC1CCCCN1C(=O)CN1C(=O)CSc2ccc(S(=O)(=O)N3CCOCC3)cc21 (stereo not drawn)	.	-1	.	.	-0.6
Cc1cc(C)cc(Nc2ccc3nonc3c2[N+](=O)[O-])c1	.	-5	.	.	6.7
CCOc1cc(S(=O)(=O)NCc2ccc3c(c2)OCO3)c(C)cc1C	-17	-2	1	-12%	3.2
Cc1ccc(NC(=S)NCCc2cnc[nH]2)cc1C	6	-10	.	3%	-0.1
Fc1ccc(Nc2nc(-c3ccncc3)nc3ccccc23)cc1	-14	-1	-9	-6%	-3.1
COc1ccc(NC(=O)CCC(=O)Nc2nnc(CC(C)C)s2)cc1Cl	.	53	.	.	-0.3
COc1ccc2c(c1)Sc1ccccc1N2	-3	.	.	-7%	-0.9
O=C(CCc1ccccc1)N1CCCC(Nc2ccc(F)cc2)C1 (stereo not drawn)	.	-10	.	.	-0.6
Cn1c(CCNC(=O)c2ccc(F)cc2)nc2ccccc21	3	-3	-42	-1%	-6.1	Arbovirus anti repeat=-5
CSC[C@@H]1NC(=S)N(c2ccc(C)cc2)C1=O	9	23	-31	28%	0.6
COC(=O)c1ccc(CSc2nnnn2C)o1	-2	?	-6	-9%	2.9
COc1ccc(CCNC(=O)c2cccc(C(=O)NCCc3ccc(OC)cc3)n2)cc1	.	5	.	.	6.3
CCOC(=O)N1CCN(C(=O)CSc2nc(=O)n3cc(C)ccc3n2)CC1	.	3	.	.	-0.9
Cc1ccc2ccccc2c1NC(=O)CNC1CCCCC1	25	-10	-6	-6%	-0.2
CCCCN=c1sc(C(=O)OC)cc(=O)n1CCCC	7	37	-57	3%	1.8
CN(C1CCCCC1)S(=O)(=O)c1ccc(NC(=O)Cn2nc(-c3ccc(F)cc3)ccc2=O)cc1	-6	0	-13	1%	-1.3
CCOC(=O)c1c(S(=O)(=O)Nc2cccc(-c3ccno3)c2)c(C)n(C)c1C	.	4	.	.	2.9
COc1cccc2c1O[C@H]1C(=O)CC[C@H]3CN(C)CCC231 (stereo partly drawn)	.	-9	.	2%	-1.7
N/C(=N\OC(=O)C(c1ccccc1)c1ccccc1)c1ccccn1	-13	-5	-20	8%	.
CC(C)(C)NC(=O)N1CCC(CO)(Cc2ccccc2Cl)CC1	4	-2	.	3%	0.2
Cc1ccccc1NC(=O)C1CCN(C(=O)N2CCOc3ccccc32)CC1	.	4	.	.	0.5
O=C(COC(=O)c1ccc(N2CCCC2=O)cc1)NCc1ccco1	-1	4	-21	-1%	0.9
CCOc1ccc(Cn2nnc(C(=O)NCCc3ccccc3)c2N)cc1	3	7	-43	3%	-6.5	Arbovirus anti repeat=11
COCCNC(=O)/C(C#N)=C/c1cc(C)n(-c2ccc(C)cc2)c1C	-14	-1	.	7%	1.0
COC/C=C/C1=CC2=CC(=O)C(C)(OC(=O)c3cnc4ccccc4n3)C(=O)C2=CN1CCCOC(C)C (stereo not drawn)	.	-4	.	-6%	10
COc1cccc(N2CCN(C(=O)C3CCN(S(=O)(=O)c4ccc5c(c4)CC(C)N5C(C)=O)CC3)CC2)c1 (stereo not drawn)	.	4	.	.	0.1
Cc1ccc[n+](CC(=O)Nc2ccc(Cl)c([N+](=O)[O-])c2)c1	.	2	.	.	-4.1
O=C(N/N=C/c1cccc(OC(=O)c2ccc([N+](=O)[O-])cc2)c1)c1cccnc1	.	8	.	.	-0.7
Cc1[nH]n(-c2ncc(-c3ccccc3)s2)c(=O)c1C(c1ccc(Cl)cc1)C(C#N)C#N (stereo not drawn)	3	2	-18	4%	8.9
Cc1ccc2[nH]c(=O)c3cc(C(=O)NCCN4CCN(C)CC4)sc3c2c1	3	?	-3	7%	-0.2	Arbovirus anti repeat=0
Cc1cccc(/C=N/NC(=O)c2ccc(NC(=O)c3ccccc3Cl)cc2)n1	.	2	.	.	1.3
CCc1ccc(S(=O)(=O)/N=C2\C=C(Nc3cccc(C(=O)O)c3)C(=O)c3ccccc32)cc1	.	5	.	.	95*
COc1ccc(/C(N)=N/OC(=O)CCc2ccccc2)cc1OC	1	0	.	7%	4.0
CCOC(=O)CSc1ncnc2c1cnn2-c1ccc(Cl)cc1	2	99	-43	1µM*	-0.2
Cc1c(Cc2ccc3c(c2)OCO3)sc(NC(=O)c2ccc3ccccc3c2)c1C(N)=O	-18	0	-8	3%	-3.5
COc1ccc(COC(=O)C2CC(=O)N(Cc3ccc(C)cc3)C2)cc1 (stereo not drawn)	.	38	.	.	0.1
O=C(Nc1ccccc1-c1ccccc1)C12CC3CC(CC(C3)C1)C2	-7	88	-24	1%	5.4
Cn1c(=O)c2sccc2n2c(CCCC(=O)NCc3cccnc3)nnc12	.	0	.	.	-3.1
COC(=O)c1ccc(C2c3c(oc4ccccc4c3=O)C(=O)N2CCCN2CCOCC2)cc1 (stereo not drawn)	-1	10	-50	.	0.7	Arbovirus anti repeat=-3
Cc1ccc(-c2csc(NC(=O)c3ccc(C)o3)n2)cc1	4	-3	-5	10%	7.5
O=c1cc(-c2ccc3c(c2)OCO3)oc2ccccc12	-13	7	16	-5%	-5.6
Cc1cc(C)cc(N(CC(=O)NC2CCCC2)C(=O)C2(C)CC(=O)N=C3C=CC=CN32)c1 (stereo not drawn)	6	0	.	-4%	-2.8
